CtBP-E1A inh: inhibitors of CtBP/E1A interaction; AlphaScreen GST-E1A/His-CtBP binding, 1536-well; stronger effect = lower value; control for the full effect not named in the record; activity change, % (concentration not given with the values); 340,000 compounds, 0.49% hits; AID 651724; in the data active means activity change below about -65%; inconclusive means about -30% to -65%; inactive means above about -30%; further: on the % scale 0 is the no-effect control and ±100 the full control effect
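Protein mix (5X: 125 nM each GST-E1A, His-CtBP) was incubated with pinned compound 2 h at 37 deg C in dark, in 50 mM Tris pH 8.0 buffer with 300 mM NaCl. Glutathione donor and nickel acceptor beads followed; AlphaScreen signal read after 1 h.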
TRPML1 agonist: human mucolipin-1 channel agonism; Q9GZU1; activation, % (no concentration beside the values); TRPML1-expressing cells, Ca2+ dye fluorescence, FDSS; host cell line not named in the record; reference of the full effect not given here; AID 624414; 410,000 compounds, 0.12% hits; in the data active = activation above about 50%; inconclusive = about 30% to 50%; inactive = below about 30%; further: 0% is about no effect; the text of the record puts the active cut at 80%
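Cells: TRPML1-DL, 1X Tet inducer, ~16 h at 37 degrees C/5% CO2. Dye: ABD Ca8 no-wash + quencher, 45-90 min RT. Read: 10 s baseline, compound add, 110 s agonist phase; 54-4 EC80 (4uM final), 110 s antagonist phase.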
Six1-Eya2 blk: inhibitors of human Six1/Eya2 interaction; AlphaScreen GST-Six1/His-Eya2 binding, biochemical; stronger effect = lower value; control for the full effect not named in the record; AID 651725; activity change, % (no concentration beside the values); Q15475+O00167; 360,000 compounds, 0.56% hits; in the data active = activity change below about -65%; inconclusive = about -30% to -65%; inactive = above about -30%; further: on the % scale 0 is the no-effect control and ±100 the full control effect
Target sequence (O00167 whole entry, looked up): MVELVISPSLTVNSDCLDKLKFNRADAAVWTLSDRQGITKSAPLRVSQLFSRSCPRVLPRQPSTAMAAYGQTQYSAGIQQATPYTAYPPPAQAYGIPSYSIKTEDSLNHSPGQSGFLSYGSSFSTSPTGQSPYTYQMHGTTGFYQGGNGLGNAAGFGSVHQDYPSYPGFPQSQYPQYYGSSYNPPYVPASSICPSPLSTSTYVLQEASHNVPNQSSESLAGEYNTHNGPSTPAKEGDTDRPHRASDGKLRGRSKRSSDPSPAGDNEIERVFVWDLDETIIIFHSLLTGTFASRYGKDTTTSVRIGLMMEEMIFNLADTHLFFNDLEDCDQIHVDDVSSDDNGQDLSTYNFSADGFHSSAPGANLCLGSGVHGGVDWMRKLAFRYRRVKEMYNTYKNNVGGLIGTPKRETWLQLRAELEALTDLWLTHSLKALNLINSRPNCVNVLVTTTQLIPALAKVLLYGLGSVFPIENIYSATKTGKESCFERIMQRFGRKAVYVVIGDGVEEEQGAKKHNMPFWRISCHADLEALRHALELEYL
Target sequence (Q15475 whole entry, looked up): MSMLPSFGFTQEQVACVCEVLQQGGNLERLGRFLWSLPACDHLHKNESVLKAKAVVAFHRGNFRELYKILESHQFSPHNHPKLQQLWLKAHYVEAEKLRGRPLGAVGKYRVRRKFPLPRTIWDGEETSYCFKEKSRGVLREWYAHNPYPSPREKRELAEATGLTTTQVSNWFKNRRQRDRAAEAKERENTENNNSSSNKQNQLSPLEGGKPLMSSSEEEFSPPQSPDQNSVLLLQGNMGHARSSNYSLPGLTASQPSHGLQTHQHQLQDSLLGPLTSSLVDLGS
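Compounds are tested against tagged Six1 and Eya2 proteins bridged by glutathione donor and nickel acceptor beads; after a one-hour incubation at 37 °C without light, AlphaScreen emission is recorded.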
D2 PAM: potentiates the human D2 dopamine receptor allosterically; P14416; DiscoveRx D2 beta-arrestin cells, luminescence, 90 min; 100% = 57 uM dopamine signal; potentiation, % (test concentration not listed); 360,000 compounds, 0.23% hits; AID 624464; active = potentiation of 50% or more; inconclusive = 30% to 50%; inactive = 30% or less;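 further: compound concentration not given in the record; tested on top of an EC20 dose of dopamine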
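PathHunter beta-arrestin assay in DiscoveRx D2 cells. Compounds were added with an EC20 of dopamine (50 nM final) for 90 min at 37 deg C. Luminescence was read 1 h after detection reagent, with 57 uM dopamine as the EC100 control.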
D2 ag: activates the human D2 dopamine receptor; P14416; DiscoveRx PathHunter D2 beta-arrestin, luminescence, 90 min; 100% = 57 uM dopamine signal; activation, % (concentration not given with the values); 360,000 compounds, 0.084% hits; AID 624465; in the data active = activation above about 40%; inconclusive = about 15% to 40%; inactive = below about 15%; further: the text of the record calls up to 30% inactive
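Agonist mode: compounds alone added to overnight-plated D2 PathHunter cells for 90 min at 37 C, with 57 uM final dopamine (EC100) defining full response. Beta-arrestin recruitment detected by chemiluminescent reagent, read after 1 h at ambient temperature.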
PINK1 modulator: modulators of PINK1 expression | PINK1 immunofluorescence, high-content cytometry, 24 h | 410,000 compounds, 0.2% hits | Potency, µM (highest dose often 76.6 µM), inactives show at the highest dose activation (PINK1 increase), actives largely listed as activators; active = well fitted activation curve with a large enough effect; inconclusive = small, poorly fitted or top-dose-only effect; inactive = flat fitted curve, though single readings scatter; cell line not stated here;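 further: potency means the concentration at half of the fitted maximal effect; % of control where 0% means no effect; nearly all actives have a fitted effect of over 65% in size; a mitochondrial uncoupler was the plate control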
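Stable cell line, 250 cells/well, 12 h attachment; compounds pinned at 5 concentrations, 24 h; CCCP control. Fixed with nuclear dye, primary antibodies 12 h at 10 degrees C, secondary plus cell stain; laser-scanning cytometer read.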
* = called active by the depositor; ? = inconclusive; . = not tested or not shown; & = joins results of further samples; [ ] = dose if it differs, or a comment.

Every second line gives: CtBP-E1A inh	TRPML1 agonist	Six1-Eya2 blk	D2 PAM	D2 ag	PINK1 modulator
CCOC(=O)C1CCCN(C(=O)CCc2nnc(-c3ccc(C(C)=O)s3)o2)C1 (configuration not stated)
    -11	0.3	0	-8	-2.2	-0.1%
Cc1ccc(Cn2c(C(C)Nc3nc(-c4ccc(F)cc4)cs3)nc3cc(C(F)(F)F)ccc32)cc1 (configuration not stated)
    -17	-0.4	-25	-8	-2.5	16%
COc1cc(C)c(C(C)C)cc1S(=O)(=O)N1CCOCC1
    6	0.0	4	11	-1.3	-0.5%
COc1ccc(C(=O)NCCc2nnc3ccc(SCC(=O)NCc4ccccc4)nn23)cc1
    -5	0.8	6	?	-0.8	2.6%
Cc1ccc(NC(=O)CSc2nnc(CNC(=O)c3ccco3)n2C)cc1
    5	-0.4	27	-27	-8.7	1.5%
COc1ccc(OCc2nnc(SCC(=O)Nc3oc(C)c4c(C)n[nH]c(=O)c34)n2C)cc1
    1	-0.5	2	-7	-2.8	-1.1%
O=C(CNC(=O)c1ccccc1)OCC(=O)c1cccs1
    4	0.0	-4	-4	2.1	3.9%
CCOC(=O)c1nc(S(C)(=O)=O)ncc1N1CCOCC1
    2	0.8	1	1	2.6	-5.4%[38.3 µM]
CCCCn1nc2cc(C(=O)NC[C@@H]3CCCO3)ccc2c1OCC
    7	1.4	5	0	-0.7	-0.7%
O=C(CCN1C(=O)/C(=C\c2ccccc2Cl)SC1=S)Nc1cccnc1
    -4	0.7	-15	13	2.1	9.5%
COC(=O)c1ccc(Cn2cnc3c(cnn3-c3ccc(F)cc3)c2=O)o1
    -6	-1.4	-5	-18	-3.2	-1.5%
CC1CCc2cc(F)ccc2N1C(=O)CSc1nnc2c(n1)[nH]c1ccccc12 (configuration not stated)
    ?	0.9	?	1	2.6	1.0%
Cc1nnc(NC(=O)CSc2cn(Cc3ccccc3)c3ccccc23)s1
    -23	3.8	-12	1	-6.6	3.2%
Cc1cccc(N2CCN(S(=O)(=O)c3c(C)[nH]c(=O)[nH]c3=O)CC2)c1C
    20	-0.3&-0.3	-1	-3	0.3	0.8%
S=c1[nH]ncn1/N=C/c1ccc(N2CCOCC2)cc1
    6	-0.3	2	-5	-2.0	-1.7%
COCC(=O)Nc1ccc(Br)cc1C
    6	-0.3	5	1	1.6	2.6%
O=C(c1ccco1)N1CCN(C(=O)c2ccccc2Oc2ccccc2)CC1
    8	0.5	2	4	-2.5	.
O=C(NC1CCN(Cc2ccccc2)CC1)c1cccc(S(=O)(=O)Nc2ccc(SC(F)F)cc2)c1
    -9	0.0	-7	-4	1.4	?
O=C1CCc2cc(S(=O)(=O)NCCc3ccccc3)cc3c2N1CC3
    -2	-0.1	-3	18	0.8	0.3%
Cc1cc(C)c(OCCCCN(C)C)c(Br)c1
    15	-0.1	6	-17	-1.8	-1.8%
CC(C)c1cccc(OCCN2CCCC2)c1
    -4	0.1	3	-23	5.7	0.5%
CCCCCCN1C[C@H](n2cc(C3CC3)nn2)[C@@H](O)C[C@@H]1c1ccc(C)cc1
    3	-0.4	-1	0	-6.5	-1.0%
CN1CCN(C(CNS(=O)(=O)c2cccs2)c2cccnc2)CC1 (configuration not stated)
    -14	-0.1	5	-13	-7.5	-0.7%
COc1ccc(NC(=O)CSc2ncn(-c3ccccc3)n2)cc1Cl
    31	0.3	16	-12	-1.8	-5.5%[38.3 µM]
CCOC(=O)C1CCN(S(=O)(=O)c2cn(C)c(=O)n(C)c2=O)CC1
    6	0.0	-1	-4	-5.8	3.2%
O=C(OCCN1C(=O)c2ccccc2C1=O)c1cc(S(=O)(=O)N2CCOCC2)ccc1F
    -5	-1.1	-4	-11	-4.0	-1.1%
CCCC(=O)N(CCN1CCOCC1)c1nc2c(OC)ccc(OC)c2s1
    1	0.2	-3	1	-5.3	0.5%
Cc1ccc(NC(=O)CCCNC(=O)c2ccc(Cl)cc2)nc1
    -22	-0.2	-13	-15	-1.8	0.7%
COc1ccccc1-c1cc2nc(C)c(CCC(=O)NCc3ccco3)c(C)n2n1
    -8	-0.5	-8	-1	-3.4	0.9%
O=c1cc2ncc(-n3cc([N+](=O)[O-])cn3)cn2[nH]1
    .	0.5	-12	-28	-7.4	-0.8%
Cc1ccc(S(=O)(=O)N(CC(=O)Nc2cc(C)ccc2C)C(=O)N2CCN(C)CC2)cc1
    6	0.6	2	7	0.1	-2.2%
COc1ccc(C(=O)c2[nH]c(N)c(C(=O)NCCc3c[nH]c4ccccc34)c2-c2ccc(Br)cc2)cc1
    0	-0.3	-15	.	.	4.9%
COc1ccccc1NC(=O)CSc1nnc(Cc2cccn2C)n1-c1ccc(F)cc1
    -6	-0.1	-18	-6	0.1	1.6%
O=C(COC(=O)c1ccc(S(=O)(=O)N2CCCC2)cc1)NCc1cccs1
    1	-0.4	47	-5	-3.6	1.7%
COc1ccc(CNc2ncc(-c3ccccc3)n2C)c(OC)c1OC
    .	-1.0	0	-58	-5.8	2.5%
Cc1ccc(S(=O)(=O)Nc2cccc(C(=O)NC3CCN(Cc4ccccc4)CC3)c2)cc1F
    0	2.3	-4	-36	0.3	0.0%
O=C(CSc1nnc(-c2cccs2)o1)NCc1ccco1
    -2	0.6	1	4	-0.5	0.9%
CC(O)[C@H]1CN=C(N)N1CCCCC1CCCCC1 (some centres not stated)
    .	0.0	7	-8	0.6	-1.0%
COn1c(-c2ccc(Cl)cc2)nc2ncccc21
    .	2.2	0	-5	-1.2	0.1%
Cc1nc2c(Br)cc(Br)cc2c(=O)n1-c1ccccc1NC1OCC(O)C(O)C1O (configuration not stated)
    -10	0.6	9	-3	4.8	6.5%
COc1ccccc1-c1noc(CSc2nc(C)cc(=O)[nH]2)n1
    1	0.9	10	-2	-0.4	1.0%
Cc1csc(SCC(=O)Nc2cc(C(N)=O)cc(C(N)=O)c2)n1
    -17	0.7	-23	-31	-3.9	2.2%
CCC(C)(C)NC(=O)C(c1cccc(OC)c1OC)N(CCC(C)C)C(=O)CCC(=O)Nc1cc(C)on1 (configuration not stated)
    2	6.7	8	-5	-4.2	-1.9%
COc1ccc([C@@H](OC)[C@@]2(Cc3ccc(O)cc3)N=C(N)N(C)C2=O)cc1
    .	0.3	-3	-2	1.5	-0.4%
Cc1c(C(=O)N2CCOCC2)c(S(=O)(=O)Nc2cccc(Br)c2)c(C)n1C
    -3	0.6	-12	-9	-1.4	-0.1%
Cc1nn(-c2ccccc2)c2[nH]c(=O)cc(C(F)F)c12
    -7	3.9	-3	0	4.7	1.7%
CC(=O)Nc1nc(-c2ccc(-c3ccccc3)cc2)cs1
    13	-0.1	-2	6	1.0	14%
O=C1CCCN1CCCNS(=O)(=O)c1ccc(Cl)c(C(=O)N2CCOCC2)c1
    4	0.2	22	-2	1.4	3.7%
COC(=O)CN1C(=O)C2(C(C#N)=C(N)Oc3n[nH]c(-c4cccs4)c32)c2ccccc21 (configuration not stated)
    -3	-0.2	-3	?	3.0	1.6%
CCCCCCn1c(=O)n2n(c1=O)C[C@]1(OC(=O)NCc3ccccc3F)CN(S(=O)(=O)c3ccc(C)cc3)C[C@]1(O)C2
    -3	0.4	0	0	-7.7	3.0%

Following part
Every second line gives: CtBP-E1A inh	TRPML1 agonist	Six1-Eya2 blk	D2 PAM	D2 ag	PINK1 modulator
O=C(/C=C/c1ccccc1[N+](=O)[O-])NNC(=O)c1ccncc1
    -18	-0.2	0	-5	-3.4	-1.1%
O=C(CSc1nncn1-c1cccnc1)Nc1cccc(C(F)(F)F)c1
    -7	-1.0	0	-3	-4.6	2.5%
COc1ccc(CN(C(=O)c2cccs2)c2ccccc2)cc1
    -21	1.7	5	-5	-0.6	0.8%
COc1ccc(CNC(=O)CN2C(=O)CCSc3ccc(S(=O)(=O)N4CCCC4)cc32)cc1
    2	-0.6	0	3	-0.5	1.8%
COc1cc(C2C(C(C)=O)=C(O)C(=O)N2CCN2CCOCC2)ccc1O (configuration not stated)
    0	-0.5	8	6	-0.3	1.6%
CCc1ccc(NC(=O)CSc2nnc(-c3cnccn3)n2C)cc1
    2	-0.9	2	-1	-3.9	-0.1%
Cc1ccc(/C=N/NC(=O)Cc2ccc(Cl)cc2)c(O)c1
    0	0.6	4	-13	-4.6	0.1%
COc1ccc(S(=O)(=O)N2CCC(C(=O)Nc3nnc(CCN4CCCCC4)s3)CC2)cc1
    5	-0.7	-1	-13	-2.1	2.6%[38.3 µM]
CCn1c(SCC(=O)Nc2ccccc2OC)nnc1-c1cnccn1
    -5	-0.3	11	5	3.4	3.2%
CCN(CC1CCCO1)C(=O)C1CCN(C2CCN(Cc3ccccc3C)CC2)CC1 (configuration not stated)
    9	-0.2	-1	-23	-4.2	2.8%
CCOC(=O)N1CCc2c(sc3c2c(=O)n(Cc2ccccc2)c(=O)n3CC(=O)NCC2CCCO2)C1 (configuration not stated)
    -3	-0.8	-9	-9	-2.1	-0.1%
COCCCNC(=O)C(=O)Nc1cc2c3c(c1)CCN3C(=O)CC2
    .	4.0	8	-1	-2.8	-2.0%
CCOc1ccc(/C=N/OC(C)C(=O)NCc2ccc3c(c2)OCO3)cc1 (configuration not stated)
    .	1.1	0	-5	0.1	0.5%
Cc1ccccc1S(=O)(=O)NC(=O)C1(C)CCN1C(=O)C/C=C/c1ccccc1 (configuration not stated)
    6	-0.7	1	6	2.6	-0.9%
CCN1C(=O)/C(=C/c2c(C)nn(C)c2C)SC1=S
    1	0.9	-5	-9	0.6	14%[38.3 µM]
COc1ccc(C(=O)NC(=S)Nc2nc(C)c(C(=O)N(C)C)s2)cc1
    5	0.0	2	3	-1.0	-2.1%[38.3 µM]
Cc1ccc(S(=O)(=O)c2cnc3cc(C)nn3c2N)cc1
    2	0.8	-20	6	-1.1	0.6%

Bioassay records: PubChem BioAssay, National Center for Advancing Translational Sciences (NCATS)

The order is random, and some 1.3% of all compounds hit somewhere here.
